Source: PubChem BioAssay (several laboratories)
HNF4A DNA FP = change in binding of human HNF4 alpha to DNA | activity change, % at 10 µM | P41235 | 360,000 compounds, 0.3% hits | HNF4a-FITC DNA binding, fluorescence polarization, 1 h; in the data active = activity change above about 30%, passing the limit was not always enough;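 note: controls were the assay level and a saturating level of protein; the project sought stronger binding though the title names inhibitors; some compounds called inactive have numbers as strong as hits; positive values seem to mean higher polarization but the record does not say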
Target sequence (P41235 whole entry, looked up): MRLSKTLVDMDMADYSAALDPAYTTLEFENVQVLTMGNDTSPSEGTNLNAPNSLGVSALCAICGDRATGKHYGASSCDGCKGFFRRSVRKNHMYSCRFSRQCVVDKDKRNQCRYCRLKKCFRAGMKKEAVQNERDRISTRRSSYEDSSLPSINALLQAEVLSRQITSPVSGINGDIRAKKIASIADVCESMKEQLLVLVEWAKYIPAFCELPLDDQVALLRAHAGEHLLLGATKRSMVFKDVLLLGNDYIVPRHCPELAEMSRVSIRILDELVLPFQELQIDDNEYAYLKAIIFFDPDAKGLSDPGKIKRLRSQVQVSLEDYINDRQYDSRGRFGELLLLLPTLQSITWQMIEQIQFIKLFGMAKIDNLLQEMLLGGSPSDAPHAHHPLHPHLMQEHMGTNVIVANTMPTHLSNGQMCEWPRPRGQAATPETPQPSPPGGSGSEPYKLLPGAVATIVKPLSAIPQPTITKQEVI
Vif A3G = HIV-1 Vif–A3G interaction blockers – biochemical, TR-FRET, GST-Vif 1-94, biotin-A3G peptide, dose response retest, primary screen (AID 1117319); TR-FRET GST-Vif / biotin-A3G peptide binding; higher % means a stronger effect; test concentration not given here; strong numbers were not always called active; 260,000 compounds, 0.57% hits; inhibition, %, or IC50 in µM where a hit was titrated;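 active = above the screen mean plus three standard deviations and confirmed in dose response; inconclusive = results disagree or hit not tested in dose response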;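 note: Vif residues 1-94 fused to GST binding biotinylated APOBEC3G peptide 110-148; 0% = full assay without inhibitor and 100% = GST in place of GST-Vif; retest series ran down from 100 µM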
RanGTP-Imp inh = disruptors of Ran-importin-beta complex formation – biochemical, FRET, CFP-Ran, YFP-importin-beta, homogeneous, primary screen; inhibition, % (no concentration beside the values); 300,000 compounds, 1.1% hits; cell-free CFP-Ran/YFP-importin-beta FRET ratio;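 active = most replicates above 15%; inconclusive = exactly half above 15%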;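 note: 0% = DMSO wells and 100% = Ran loaded with GDP instead of GTP; wells of about 40 µL received 100 nL stock; the first replicate is given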
Beta2AR agonist = agonists of human beta-2 adrenergic receptor inducing internalization. Am2.2-beta2AR cells, FAP receptor internalization, flow cytometry; reference of the scale not given here. response, % (no concentration beside the values). 340,000 compounds, 0.43% hits;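 active = response above a set limit, near 3 SD of response in nonfluorescent compounds, cut at about 42% in these data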;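 note: stock transfer was 100 nL into about 11 µL; a reference agonist was the positive control; negative values mostly stem from fluorescent compounds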
Target sequence (P07550 whole entry, looked up): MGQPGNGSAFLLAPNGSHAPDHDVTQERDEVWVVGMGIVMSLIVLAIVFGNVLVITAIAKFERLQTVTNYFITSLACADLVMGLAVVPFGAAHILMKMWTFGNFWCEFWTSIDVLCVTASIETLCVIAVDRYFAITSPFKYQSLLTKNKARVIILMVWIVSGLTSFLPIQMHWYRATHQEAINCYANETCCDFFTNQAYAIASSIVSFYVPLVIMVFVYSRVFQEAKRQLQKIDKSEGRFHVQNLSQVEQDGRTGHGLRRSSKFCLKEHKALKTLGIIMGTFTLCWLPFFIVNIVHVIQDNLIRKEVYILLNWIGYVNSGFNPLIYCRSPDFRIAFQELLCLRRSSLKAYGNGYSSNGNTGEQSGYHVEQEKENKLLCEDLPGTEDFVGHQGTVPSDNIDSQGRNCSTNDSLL
ALR H2O2 inh = inhibitors of human sulfhydryl oxidase ALR | P55789 | purified ALR, DTT oxidation, H2O2 HRP-luminol luminescence | inhibition, % (test concentration not listed) | 290,000 compounds, 3.8% hits;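 active = mean and each replicate at 75% or more; inconclusive = only one of the two met; inactive = neither met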;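 note: stock transfer was 7.5 nL into about 7.5 µL; 0% = neutral wells and 100% = wells with inactivated enzyme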
Target sequence (P55789 whole entry, looked up): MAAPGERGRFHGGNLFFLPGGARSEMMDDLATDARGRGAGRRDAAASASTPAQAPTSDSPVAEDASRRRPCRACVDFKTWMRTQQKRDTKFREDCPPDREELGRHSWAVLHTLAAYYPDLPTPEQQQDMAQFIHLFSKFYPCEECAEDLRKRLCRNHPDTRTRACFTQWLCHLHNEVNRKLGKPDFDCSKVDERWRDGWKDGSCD
Calb FLC = affects C. albicans growth with fluconazole | C. albicans CaCi-2 (fluconazole-resistant clinical isolate) + fluconazole, Alamar Blue growth, 48 h | growth inhibition, % (test concentration not listed) | 300,000 compounds, 0.57% hits;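 active = most replicates above 75%; inconclusive = exactly half above 75%; inactive = most below 75%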;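 note: all wells also contain fluconazole at 8 µg/ml as a sub-toxic cotreatment; 0% = median of DMSO wells and 100% = median of geldanamycin control wells; wells of about 8 µL received 7.5 nL stock; the first replicate is given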
LANA-H2A inh = blocks KSHV LANA binding to histone H2A/H2B; Q9QR71; cell-free LANA-H2A/H2B peptide, fluorescence polarization; inhibition, % (concentration not given with the values); 320,000 compounds, 0.6% hits; AID 2629; in the data active = inhibition mostly above about 10%, no sharp cut-off; inactive = mostly below about 6.7%;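 note: stock transfer was 7.5 nL into about 10 µL; 0% = median of vehicle wells and 100% = median of positive control wells; one replicate is shown; the record names a cut of 25% in any replicate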
An asterisk follows results filed as active; ? = inconclusive; nt = not tested or not shown. Compounds were not picked by outcome; 6.3% or so of the library scored in one or more.

SMILES	HNF4A DNA FP	Vif A3G	RanGTP-Imp inh	Beta2AR agonist	ALR H2O2 inh	Calb FLC	LANA-H2A inh
O=C1C2CCCN2C(=S)N1c1ccccc1 (configuration not stated)	2.1	0%	2.1	-11	-3	-3	1.2
CC(=O)Nc1cccc(NC(=O)CSc2nnc3ccc(-c4cccnc4)nn23)c1	-0.1	-3%	?	-4	-11	20	2.3
Cc1nc2ccc(Cl)cc2nc1C	-1.0	10%	-1.0	-2	-12	6	2.1
CC1CCN(CC(=O)NC(=O)NCc2ccccc2)CC1	0.8	-2%	-2.3	-2	-5	-1	-0.2
COc1ccc(NC(=O)CSc2nc3nc(-c4cccs4)cc(C(F)(F)F)c3c(=O)[nH]2)c(OC)c1	-1.3	26%	-3.2	-11	nt	1	-0.2
Cc1c(C(=O)NC(=S)NCC(C)C)oc2ccccc12	-2.0	-10%	0.6	-3	-2	24	-0.2
Cc1occc1-c1nnc(SCC(=O)c2ccc(F)cc2)o1	0.8	2%	-3.0	-5	97*	12	1.3
O=C(COC(=O)c1ccco1)NCc1ccco1	0.2	?	-1.3	-2	nt	-5	4.5
Cc1cccc(-c2nc(CS(=O)CC(=O)N3CCCCC3)c(C)o2)c1 (configuration not stated)	-3.8	15%	1.1	8	100*	2	-2.3
COc1ccc(Cc2c(N)nc(N)nc2N)cc1	-2.6	-2%	-1.1	-2	-4	45	-9.4
CC(/C=C/c1ccc2c(c1)OCO2)=N\NC(=O)COc1ccccc1C	2.0	0%	-5.8	-13	-4	-14	1.9
COc1ccc(-c2noc(CCCOc3ccccc3)n2)cc1OC	0.4	-2%	3.7	17	-4	5	3.8
O=C(NCC(=O)N1CCC2(CC1)NCCc1[nH]cnc12)c1ccc2ccccc2c1	6.2	nt	-0.7	-5	-6	0	1.1
CCOc1ccc(C(c2c(NC(=O)c3ccco3)sc(C)c2C)N2CCOCC2)cc1 (configuration not stated)	2.7	2%	nt	13	nt	nt	4.6
CCOC(=O)CN(c1ccccn1)S(=O)(=O)c1ccc(OC)cc1	-0.4	-7%	-6.1	-2	2	-3	-2.0
Cc1nc2c(cnn2-c2ccccc2Cl)c(=O)n1-c1ccc(N2CCC(C)CC2)cc1	2.6	4%	0.9	5	-4	-2	4.4
Cc1ccc(NC(=O)c2ccc3c(c2)OCCO3)cc1	4.9	-4%	1.0	3	-9	2	-0.2
O=C(N/N=C/c1ccc(OC(=O)c2cccs2)cc1)c1cccc(F)c1	1.9	64%	-1.0	3	-4	22	3.0
Nc1ccc(S(=O)(=O)NC2=NCCCCC2)cc1	3.0	0%	0.4	1	-12	-5	-0.5
CC1(C)C2CCC1(C)C(OC(=O)c1ccc(O)cc1)C2 (configuration not stated)	0.0	10%	-2.4	1	38	1	3.2
COc1ccc(C(=O)NC(=S)N2CCOCC2)cc1Br	1.4	1%	1.7	-1	3	8	-3.8
COc1cccc(N2CCN(C(=O)c3cc4cc(Cl)ccc4[nH]3)CC2)c1	3.3	-1%	0.2	4	-24	21	3.7
CC(CC(=O)Nc1ccccc1)n1ccnc1 (configuration not stated)	1.9	nt	3.5	-5	-12	?	5.6
COc1ccc([N+](=O)[O-])cc1NC(=O)c1ccc(C)o1	-1.6	-5%	?	-1	0	19	-0.9
Cc1cccc2nc(CSc3nc4cc([N+](=O)[O-])ccc4s3)cn12	3.2	0%	1.6	-3	-10	-5	0.2
Carrying on:
SMILES	HNF4A DNA FP	Vif A3G	RanGTP-Imp inh	Beta2AR agonist	ALR H2O2 inh	Calb FLC	LANA-H2A inh
Nc1cc(C(F)(F)F)ccc1NCCc1ccccn1	0.9	-1%	5.7	nt	98*	5	-0.1
O=C(c1ncn[nH]1)N1CCN(c2nc(-c3ccccc3)cs2)CC1	-2.8	15%	0.3	1	53	0	-3.1
Cc1cccc(/C=N/n2c(-c3cc(-c4ccccc4)n[nH]3)n[nH]c2=S)c1	3.3	nt	4.5	-1	-10	20	-0.2
CCNc1nc(NCC)nc(N(n2cnnc2)S(=O)(=O)c2ccc(C)cc2)n1	1.4	nt	3.5	-11	nt	11	nt
Cc1cc(/C=C(\C#N)C(=O)NCc2ccco2)c(C)[nH]1	1.5	0%	-6.4	0	10	-8	3.8
COc1ccc(NC(=O)Cc2coc3cc(C)ccc23)cc1S(=O)(=O)N1CCOCC1	1.1	17%	-3.2	-5	-2	-7	1.5
COc1ccc(-c2cn[nH]c2-c2ccc(OCc3ccc(F)cc3)cc2O)cc1OC	-2.4	12%	-3.1	1	nt	-5	-5.1
COc1cc(/C=N/n2cnnc2-n2nc(C)cc2C)cc([N+](=O)[O-])c1O	0.5	nt	-4.6	7	-7	-1	-0.6
CN1C(=O)/C(=C/c2ccc(OCc3ccc(C(=O)O)cc3)c(Cl)c2)NC1=S	-2.0	nt	0.8	6	39	-12	-0.9
Cc1cccc(NC(=O)c2oc(=O)c3ccccc3c2-c2ccccc2)c1C	5.3	nt	-0.3	13	-8	2	-5.5
COc1ccc(/C=N/S(=O)(=O)c2ccc(C)cc2)cc1	1.3	0%	0.1	-1	-8	12	5.7
Cc1ccc(NC(=S)N(CCN2CCOCC2)Cc2ccccc2F)cc1	-2.4	6%	11	7	-8	8	3.4
COc1cc2[nH]c(C(=O)NCc3ccccc3)cc2c(OC)c1OC	1.9	2%	-1.9	16	-2	14	1.4
Cc1cc(C)c2oc(C(=O)NCc3ccccc3)cc(=O)c2c1	2.8	-11%	0.1	13	2	21	11
Cc1cc(C)cc(CC2CC(=O)N(c3ccc([N+](=O)[O-])cc3)C2=O)c1 (configuration not stated)	-2.0	nt	-3.0	6	-4	-5	-3.0
CCCCn1c(SCC(=O)Nc2cc(C)on2)nnc1-c1cccnc1	-1.8	-3%	5.1	-7	-4	12	1.2
O=C(COc1ccc2c3c(c(=O)oc2c1)CCC3)NCC(O)c1ccccc1 (configuration not stated)	11	nt	-2.5	5	-1	2	6.7
CCC(C)Nc1nnnc2c1sc1nc3c(cc12)COC(C)(C)C3 (configuration not stated)	0.7	nt	-5.3	-3	1	50	1.5
O=C(CN1C(=O)NC2(CCCC2)C1=O)Nc1cccc(Cl)c1Cl	-1.3	nt	2.4	4	nt	-5	-3.7
Cc1ccccc1NC(=O)c1c(C)nn(-c2ccccc2)c1Cl	1.5	nt	5.2	-1	1	12	2.3
CCOc1ccc(OCC)c(NC(=O)C2CCN(c3ncccn3)CC2)c1	-0.1	6%	0.8	2	1	-5	-3.8
CCOC(=O)COc1ccc2c3c(c(=O)oc2c1)CCCC3	-2.6	nt	-0.4	6	-4	4	-4.2
COc1cc(OC)cc(C(=O)NC(C(=O)N2CCC2)C(C)C)c1 (configuration not stated)	0.9	nt	nt	0	4	nt	0.9
CSCCC(Nc1ccc(S(=O)(=O)N2CCOCC2)cc1[N+](=O)[O-])C(=O)OCC(=O)NCC(C)C (configuration not stated)	-2.2	12%	-2.2	-2	-3	-2	-5.5
COc1ccc(-c2nc(-c3ccccc3OC)no2)cc1OC	4.6	22%	nt	3	1	3	-3.6
More results
SMILES	HNF4A DNA FP	Vif A3G	RanGTP-Imp inh	Beta2AR agonist	ALR H2O2 inh	Calb FLC	LANA-H2A inh
CC(=O)c1cccc(NC(=O)C(C)OC(=O)CCc2nc3ccccc3c(=O)[nH]2)c1 (configuration not stated)	4.3	-1%	nt	-2	0	nt	3.8
CC(=O)N=c1c(C#N)cc2c(=O)n3ccccc3nc2n1Cc1ccccc1	15	-9%	32*	7	-4	-6	-3.2
CCn1c(CNc2ccc(F)cc2)nnc1SCC(=O)N1CCCc2ccccc21	1.4	2%	-1.5	10	7	-4	-1.8
CCOC(=O)N1CCN(CC(=O)Nc2ccc(F)c(F)c2F)CC1	-3.2	9%	4.4	2	0	-7	2.9
O=S(=O)(NCCCN1CCOCC1)c1ccc(Cl)s1	-3.7	nt	7.2	1	-7	-10	2.8
O=C(NN1C(=O)c2ccccc2C1=O)C1CC2CCC1C2 (configuration not stated)	-0.6	-8%	?	3	44	-5	0.5
O=C(c1sccc1Br)N1CCN(Cc2ccc3c(c2)OCO3)CC1	1.0	-1%	2.8	8	-1	-1	1.9
COc1ccc(OC)c(S(=O)(=O)N2CCCC2C(=O)N2CCc3ccccc3C2)c1 (configuration not stated)	-0.7	nt	-2.3	0	-7	7	-2.0
O=S(=O)(Nc1ccccc1N1CCCCC1)c1ccccc1	0.7	0%	-5.8	3	20	-1	-5.8
O=C1C2C3C=CC(C4CC34)C2C(=O)N1CCc1ccccc1 (configuration not stated)	-0.1	13%	0.1	-1	-3	-6	4.3
Cc1cc(C)c(C#N)c(SCC(=O)NC(C)(C)C)n1	2.3	2%	-1.4	9	nt	12	1.2
CCOC(=O)c1ccc(NC(=O)Nc2c(C)n(C)n(-c3ccccc3)c2=O)cc1	2.4	nt	0.5	-4	-5	20	0.2
O=C(Nc1ccc(C(F)(F)F)cc1)c1cccnc1N1CCOCC1	1.0	-1%	1.5	-10	-5	-21	-0.4
O=C(N/N=C/c1ccc(-c2cccc([N+](=O)[O-])c2)o1)c1ccccc1O	-17	nt	4.2	5	-9	29	-0.5
COc1ccc(S(=O)(=O)N/N=C(/C)c2ccncc2)c(OC)c1	-0.5	nt	2.7	9	81*	2	7.3
Cc1ccc(S(=O)(=O)N(C)C)cc1NC(=O)c1cccs1	-1.2	-2%	-2.6	-3	0	2	-2.5
COc1ccc(C(=O)COC(=O)c2ccn(C)n2)cc1	-4.8	nt	-1.7	-4	nt	4	7.8
Cc1onc(C(=O)N2CCN(c3ccccc3)CC2)c1[N+](=O)[O-]	0.5	nt	-0.5	-3	95*	1	nt
CCN(CC)S(=O)(=O)c1ccc(Cl)c(C(=O)NCc2ccccc2Cl)c1	4.4	-4%	-3.2	18	-7	5	1.4
CCOc1ccc(N2C(=O)C3ON(c4ccccc4)C(c4ccco4)C3C2=O)cc1 (configuration not stated)	-2.8	-4%	-4.1	11	7	6	11*
CCCCn1c(N)c(N(CC(C)C)C(=O)C2CC(=O)N(CCc3ccccc3)C2)c(=O)[nH]c1=O (configuration not stated)	-5.2	2%	-1.1	4	5	1	5.6
CC(C)Oc1ccc(C(=O)OCC(=O)N2CCCc3ccccc32)cc1	0.1	7%	-2.1	19	-7	-18	-2.7
O=C(c1cc(Br)ccc1Cl)N1CCCC1	2.0	3%	-0.6	5	-18	-7	11*
COC(=O)C(O)(CC(=O)Nc1cc(Cl)ccc1Cl)C(F)(F)F (configuration not stated)	-2.4	17%	3.0	5	-4	-6	6.3
CC(=O)Nc1n[nH]c(-c2ccc(C)cc2)c1C	-2.1	15%	2.8	4	-8	19	-2.8
Remaining list, next part.
SMILES	HNF4A DNA FP	Vif A3G	RanGTP-Imp inh	Beta2AR agonist	ALR H2O2 inh	Calb FLC	LANA-H2A inh
O=[N+]([O-])c1cccc(Cl)c1CSc1ccccn1	-4.2	5%	-0.5	-4	13	-1	0.8
COc1ccc2cc(C(N)=O)c(=Nc3ccc(C)cc3)oc2c1	-1.6	nt	5.3	-5	-1	-12	7.5
Cc1cc(C)n2c(Br)c(CSc3nc4ccccc4s3)nc2n1	0.6	13%	1.8	47*	0	-6	0.0
NC(=O)CC(NC(=O)c1ccc(Br)cc1)c1ccc(N2CCCCCCC2)c([N+](=O)[O-])c1 (configuration not stated)	1.1	nt	-2.8	-14	4	-1	-6.9
CC1CCCN(C/C=C/c2ccccc2[N+](=O)[O-])C1 (configuration not stated)	-2.3	1%	1.4	2	-28	6	-3.6
Cc1onc(-c2ccccc2)c1C(=O)N(CC(C)C)c1c(N)n(CC(C)C)c(=O)[nH]c1=O	2.4	-22%	nt	-1	nt	nt	7.0
